# RanGTP-Imp inh: inhibitors of RanGTP-importin-beta interaction, primary screen, biochemical, FRET, CFP-Ran, YFP-importin-beta, homogeneous. Ran GTPase (GTP-bound) - importin-beta complex. cell-free CFP-Ran/YFP-importin-beta FRET ratio. inhibition, % (test concentration not listed). 300,000 compounds, 1.1% hits. AID 2216, 2009;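 active = most replicates above 15%; inconclusive = exactly half above 15%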;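 also: 0% = DMSO wells and 100% = Ran loaded with GDP instead of GTP; wells of about 40 µL received 100 nL stock; the first replicate is given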
# HNF4A DNA FP: change in binding of human HNF4A to DNA, primary screen, biochemical, fluorescence polarization, FITC-DNA. Hepatocyte nuclear factor 4-alpha (Homo sapiens), P41235. 1 h. activity change, % at 10 µM. 360,000 compounds, 0.3% hits; in the data active = activity change above about 30%, passing the limit was not always enough;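 also: controls were the assay level and a saturating level of protein; the project sought stronger binding though the title names inhibitors; some compounds called inactive have numbers as strong as hits; positive values seem to mean higher polarization but the record does not say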
# Target sequence (P41235 whole entry, looked up): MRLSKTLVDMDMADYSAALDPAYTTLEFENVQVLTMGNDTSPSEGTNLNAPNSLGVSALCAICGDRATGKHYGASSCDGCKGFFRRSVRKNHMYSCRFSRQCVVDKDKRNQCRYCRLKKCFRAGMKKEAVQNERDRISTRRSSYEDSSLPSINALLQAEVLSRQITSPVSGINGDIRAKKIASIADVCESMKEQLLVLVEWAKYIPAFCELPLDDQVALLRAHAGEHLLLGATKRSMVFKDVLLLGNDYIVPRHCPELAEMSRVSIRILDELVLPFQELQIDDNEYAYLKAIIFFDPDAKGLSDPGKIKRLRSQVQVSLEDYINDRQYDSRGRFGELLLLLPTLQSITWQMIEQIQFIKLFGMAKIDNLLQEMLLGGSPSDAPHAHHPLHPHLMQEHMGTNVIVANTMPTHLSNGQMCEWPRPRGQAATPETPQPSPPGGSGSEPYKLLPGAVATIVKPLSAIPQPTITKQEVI
# UCH37 inh: inhibitors of human UCH37 deubiquitinase, primary screen, biochemical, Ub-AMC cleavage, fluorescence; Ubiquitin carboxyl-terminal hydrolase isozyme L5 (Homo sapiens), Q9Y5K5; purified proteasome/UCH37; inhibition, % (test concentration not listed); 330,000 compounds, 0.33% hits;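 active = mean of two replicates above 20%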;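 also: 0% = compound-free wells with enzyme and 100% = wells lacking proteasome; stock transfer was 100 nL into about 20 µL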
# Target sequence (Q9Y5K5 whole entry, looked up): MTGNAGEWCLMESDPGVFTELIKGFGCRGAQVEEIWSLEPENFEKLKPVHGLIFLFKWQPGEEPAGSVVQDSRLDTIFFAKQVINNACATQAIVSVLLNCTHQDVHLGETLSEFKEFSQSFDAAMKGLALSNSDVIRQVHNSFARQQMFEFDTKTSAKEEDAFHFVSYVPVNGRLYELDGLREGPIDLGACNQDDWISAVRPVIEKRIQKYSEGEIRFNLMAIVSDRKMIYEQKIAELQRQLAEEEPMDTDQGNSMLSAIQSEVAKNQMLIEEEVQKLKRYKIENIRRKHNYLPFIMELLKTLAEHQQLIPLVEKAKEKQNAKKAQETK
#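 Material: Human UCH37 enzyme supplied as purified proteasome complex | Schedule: 30 min preincubation with enzyme, 25 min cleavage at room temperature | Detection: AMC fluorescence 355/460 nm | Measure: % inhibition of Ub-AMC cleavage fluorescence | Controls: Wells without proteasome as full block, compound-free enzyme plus substrate as uninhibited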
# FGF22 binding: binders of human FGF22 protein, primary screen, FGF22 synaptogenesis inhibitor project, biophysical, thermal shift, single point; 340,000 compounds, 1.5% hits; AID 651658, 2012; calls only at 9.99 µM; Fibroblast growth factor 22 (Homo sapiens), Q9HCT0; recombinant FGF22 thermal shift, SYPRO orange fluorescence; percent of sucrose octasulfate shift, DMSO zero;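 active = melting point raised past a set limit in the mean and every replicate; inconclusive = no clear call; three in four hits are not shown here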
# Target sequence (Q9HCT0 whole entry, looked up): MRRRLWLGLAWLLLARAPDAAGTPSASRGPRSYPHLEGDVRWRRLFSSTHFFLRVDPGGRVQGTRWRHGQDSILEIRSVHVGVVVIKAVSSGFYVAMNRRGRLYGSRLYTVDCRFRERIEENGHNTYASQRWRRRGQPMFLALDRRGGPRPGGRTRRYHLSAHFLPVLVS
# E coli growth: E. coli growth inhibition, primary screen, OD600; Escherichia coli growth, 23 h; hits give low values; OD600 absorbance (no concentration beside the values); 330,000 compounds, 0.21% hits; AID 1053175, 2014;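 active = OD600 absorbance below the run mean of sample wells minus 3.6 SD, in any replicate, cut at about 0.56 in these data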;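 also: stock transfer was 300 nL into about 60 µL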
# AF4-AF9 inh: inhibitors of AF4 peptide binding to AF9, primary screen, biochemical, AlphaScreen, biotin-AF4 peptide, FLAG-AF9, single point; Protein AF-9 (Homo sapiens), P42568; inhibition, % at 10 µM; 350,000 compounds, 0.47% hits;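 active = every replicate reaching a set inhibition limit, whatever the replicate mean, cut at about 25% in these data; inconclusive = mean inhibition reaches that limit but some replicates miss it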;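 also: 0% = plate neutral control median and 100% = total signal loss; the record names both 10 and 1 µM as test concentration; the first replicate is given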
# Vif A3G: inhibitors of Vif binding to APOBEC3G peptide, primary screen, biochemical, TR-FRET, GST-Vif 1-94, biotin-A3G peptide, dose response retest (AID 1117319). TR-FRET GST-Vif / biotin-A3G peptide binding; higher % means a stronger effect; test concentration not given here; strong numbers were not always called active. inhibition, %, or IC50 in µM where a hit was titrated. 260,000 compounds, 0.57% hits;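 active = above the screen mean plus three standard deviations and confirmed in dose response; inconclusive = results disagree or hit not tested in dose response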;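 also: Vif residues 1-94 fused to GST binding biotinylated APOBEC3G peptide 110-148; 0% = full assay without inhibitor and 100% = GST in place of GST-Vif; retest series ran down from 100 µM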
# * = called active by the depositor; i = inactive; ? = inconclusive; / = no result given; & = joins results of further samples.
canonical_smiles,RanGTP-Imp inh,HNF4A DNA FP,UCH37 inh,FGF22 binding,E coli growth,AF4-AF9 inh,Vif A3G
O=S(=O)(NCc1ccco1)c1ccc(S(=O)(=O)N2CCCC2)cc1,2.8,4.5,5.8,i,0.74,-1.0,3%
COc1ccc(CNc2nc(Cl)c(C#N)s2)cc1,0.2,-2.8,2.9,i,0.6,-0.4,0%
CCOc1cc(C(c2c(O)nc(SC)[nH]c2=O)c2c(O)nc(SC)[nH]c2=O)ccc1O,-2.8,-5.9,3.2,i,0.67,-4.7,/
CCC(CC)NC(=O)c1cc(OC)c(OC)c(OC)c1,3.3,2.7,-1.0,/,0.68,/,-4%
O=C(NC1CCCCC1)Sc1ccc(Cl)cc1,-4.1,0.3,9.2,/,0.63,/,8%
C=CCOc1ccccc1/C=c1\sc2nc(=O)c(C)nn2c1=O,/,-5.0,/,i,/,-14,12%
O=C(CN1C(=O)NC2(CCCC2)C1=O)NCc1ccc(Cl)cc1,/,-2.6,0.3,i,0.66,-1.5,/
CN1CCN(S(=O)(=O)c2ccc(Br)s2)CC1,-0.7,-0.5,1.0,/,0.63,/,5%
CCOC(=O)c1ccc(NC(=S)N2CCSC2c2ccc(OC)cc2)cc1 (stereo unspecified),-0.8,2.9,2.3,i,0.67,-1.6,1%
CCc1ccccc1NC(=O)C(Cc1ccccc1)c1nn[nH]n1 (stereo unspecified),2.1,-2.3,1.5,i,0.7,-1.6,-6%
COc1ccc(/C=C(/NC(=O)c2ccccc2)C(=O)N2CCOCC2)cc1OC,-0.5,-1.7,0.8,i,0.69,-3.6,/
CCOc1cnc(-c2ccc(Cl)cc2)o1,-2.9,0.2,2.0,/,0.81,/,23%
CCN(CC)C1CCN(C(=O)c2cc(COc3ccc(F)cc3Cl)on2)C1 (stereo unspecified),?,1.0,1.6,i,0.69,6.5,9%
COc1cc(/C=N/n2nnnc2Nc2ccccc2)cc(OC)c1OC,-1.4,-3.1,/,/,/,/,-1%
COc1ccc(CCNC(=O)CSc2nnc3ccccn23)cc1,2.7,1.9,-1.8,i,0.69,-0.8,-6%
Cc1ccc(COc2ccc(/C=N/O)cc2)cc1,0.0,3.8,/,i,/,3.2,/
CCN(CC)S(=O)(=O)c1ccc(N2CCOCC2)c(NC(=O)Cc2cccc3ccccc23)c1,1.6,1.5,2.1,/,0.73,/,-22%
O=C(COC(=O)Cn1cnc2ccccc2c1=O)Nc1ccc(Cl)c(C(F)(F)F)c1,5.8,1.6,1.8,i,0.71,-3.4,11%
CC1CCCCC12NC(=O)N(CC(=O)N1CCN(S(=O)(=O)/C=C/c3ccccc3)CC1)C2=O (stereo unspecified),/,2.6,3.1,i,0.7,0.7,-4%
Cc1cc(Cl)c(S(=O)(=O)NCc2ccncc2)cc1OCC(N)=O,0.0,3.4,3.9,/,0.75,/,-4%
O=C(CSc1ccccn1)N1CCc2ccccc21,4.8,0.8,0.8,i,0.68,0.7,4%
CN1CCC(OC(=O)C23CCC(C)(C(=O)O2)C3(C)C)CC1 (stereo unspecified),?,-1.2,2.7,/,0.65,/,1%
COc1ccc(CCn2c(=S)[nH]c3ccc(N4CCOCC4)cc3c2=O)cc1OC,6.5,-2.5,-66,i,0.65,0.9,3%
O=C(NNS(=O)(=O)c1ccc(Br)cc1)NC1CCCCC1,?,-2.2,2.8,/,0.66,/,/
COc1ccccc1N1CCN(C(=O)CSc2nnc(-c3ccoc3C)o2)CC1,6.1,3.8,3.8,/,0.76,/,11%
CCOC(=O)CC1C(=O)NCCN1C1CCCC1 (stereo unspecified),-0.6,2.4,3.3,i,0.71,0.2,-4%
CCOC(=O)C1=CCN(S(=O)(=O)c2ccccc2)C1c1ccccc1 (stereo unspecified),/,-1.3,/,/,/,1.2,/
COc1cc(NC(=S)NC(=O)C(C)C)ccc1NC(=O)c1cc2ccccc2o1,-2.1,-3.5,-18,i,0.68,-6.9,-9%
Cc1ccc(-c2nc(CS(=O)(=O)CC(=O)NCc3cccc(F)c3)c(C)o2)cc1,-3.7,-0.7,3.7,i,0.68,4.5,/
Cc1nc(=O)c(-c2ccccc2)c(C)n1CCCCCC(=O)O,0.1,-4.8,-0.6,/,0.62,/,2%
O=C(O)c1ccc(Oc2cccc([N+](=O)[O-])c2)cc1C(=O)O,4.6,-2.6,3.4,/,0.67,/,-5%
Cc1ccc(S(=O)(=O)n2ccc3c2CCCC3=O)cc1,1.7,2.3,4.2,i,0.68,0.3,-5%
Cc1ccc2c(c1)nnn2C1CCN(C(=O)C23CC4CC(CC(C4)C2)C3)CC1,4.2,-0.3,2.4,/,0.67,/,2%
Brc1ccc(-c2csc(NNC3=NCCCCC3)n2)cc1,-4.9,-4.7,4.1,/,0.66,/,-1%
COc1ccc(Cl)cc1NC(=O)CN(C)C(=O)c1cn(-c2ccccc2)nc1-c1cccnc1,0.5,-1.7,2.5,i,0.65,3.6,6%
Cc1ccc(C(=O)NCCCNc2ccc(C(F)(F)F)cc2[N+](=O)[O-])cc1,-3.0,12,1.5,i,0.67,-5.0,11%
CCOC(=O)C1=C[C@@H](C(C)C)N(S(=O)(=O)c2ccc(C)cc2)[C@H]1c1ccccc1F,/,-2.9,/,i,/,-0.2,/
O=C(O)Cc1ccc(NC(=O)Nc2ccc3c(c2)OCO3)cc1,-0.4,-0.6,2.1,/,0.67,-1.3,5%
CC(C)Cn1c(CN2C(=O)c3ccccc3C2=O)nc2ccccc2c1=O,2.9,-1.3,1.1,/,0.76,/,0%
c1coc(-c2nnc(SCc3cn4ccccc4n3)o2)c1,-1.8,-0.6,3.3,/,0.67,/,2%
O=C(O)[C@@H]1CCCN1S(=O)(=O)c1cccc(S(=O)(=O)N2CCC[C@H]2C(=O)O)c1,?,0.4,-0.2,i,/,3.0,/
CCCCC(=O)Nc1cccc(NC(=O)CC)c1,-0.3,3.2,0.6,/,0.71,/,0%
Nc1c([N+](=O)[O-])cc(-c2cnc[nH]2)cc1[N+](=O)[O-],3.2,4.7,/,i,/,-0.7,-2%
CCN(CC)c1ccc(NC(=O)CN2CCN(c3nc(C)cc(C)n3)CC2)cc1,/,0.1,0.8,/,0.75,/,3%
CC(=O)OC1C2CCC1C([N+]1(C)CCCCC1)CC2 (stereo unspecified),-0.6,5.9,-0.5,i,0.65,-1.3,-3%
CCOC(=O)c1ccc(Nc2cc3ccccc3c(=O)[nH]2)cc1,-94,-0.6,3.5,i,0.68,2.9,/
COc1ccc(NS(=O)(=O)c2cc(NC(=O)c3cnccn3)ccc2OC)cc1Br,1.1,0.8,5.8,i,0.71,1.9,12%
COC(=O)c1ccc(N)c(CS(=O)(=O)c2ccc(Cl)cc2)c1,2.5,0.7,1.2,i,0.66,-1.0,-8%
CN(C1CCS(=O)(=O)C1)S(=O)(=O)c1ccccc1 (stereo unspecified),1.0,-3.2,2.0,i,0.7,-0.6,26%
COc1cccc(N2CC(=O)N(NC(=O)CSc3nc(C)cc(C)c3C#N)CC2=O)c1,-0.4,-0.1,-3.1,/,0.66,/,7%
COC(=O)c1c(NC(=O)Cc2cccs2)sc(C(=O)N2CCCCC2)c1C,0.6,-0.1,0.2,/,0.68,/,-5%&0%
Cc1cccc(NC(=O)c2cc3n(n2)C(C(F)(F)F)CC(C2CC2)N3)c1C (stereo unspecified),-2.8,-2.1,-0.3,/,0.73,/,11%
O=C(Cc1ccc(Cl)cc1)NNC(=S)NC(=O)c1cccnc1,1.4,2.9,3.7,i,0.69,-4.1,-11%
O=C(COc1ccc2ccc(=O)oc2c1)Nc1c(Cl)cccc1C(F)(F)F,-0.8,-1.6,-26,i,0.75,-3.9,-6%
Cc1ccc(NC(=O)CSc2nccn2C)cc1S(=O)(=O)N1CCOCC1,-3.5,3.0,1.7,/,0.66,/,0%
CC(C)CCNC(=O)c1cccc(S(=O)(=O)N2CCc3ccccc32)c1,-0.7,1.0,2.2,/,0.74,/,24%
CC(C)(C)C(=O)N1CCN(c2ccc([N+](=O)[O-])c(NCc3cccnc3)c2)CC1,-4.2,-0.4,14,/,0.7,4.5,/
CCSc1nc2c(c(=O)[nH]c(=O)n2C)n1C,-1.8,-1.1,0.9,/,0.67,/,-1%
Cc1onc(-c2ccccc2)c1C(=O)NCc1cccs1,5.7,2.8,0.7,/,0.75,/,73%
COc1cc(CN2CCN(S(=O)(=O)c3ccccc3)CC2)cc(OC)c1OC,-1.6,1.4,-0.5,i,0.64,3.4,/

# Following part.
canonical_smiles,RanGTP-Imp inh,HNF4A DNA FP,UCH37 inh,FGF22 binding,E coli growth,AF4-AF9 inh,Vif A3G
Cc1ccc(S(=O)(=O)Nc2ccc(C(=O)N3CCCC3)cc2)c(C)c1NS(C)(=O)=O,0.1,-5.0,3.6,i,0.66,0.0,/
COc1ccc(N2CCN(C(=O)Cc3ccc(C)cc3)CC2)cc1,-1.7,-1.3,4.7,i,0.67,2.0,/
COc1ccc(NC(=O)N2CCCC(C(=O)NCCc3ccccc3)C2)cc1 (stereo unspecified),0.3,2.4,1.5,i,0.67,0.6,/
COc1ccc2c(c1)CCc1c(C(=O)Nc3c(C)n(C)n(-c4ccccc4)c3=O)noc1-2,?,4.2,0.7,/,0.67,/,-2%
CC(C)C[C@H](NC(=O)c1nc[nH]c1C(=O)NC1CCNCC1)C(=O)OCc1ccccc1,4.7,-0.5,0.8,i,/,5.5,/
CCOC(=O)/C(C#N)=N/Nc1ccccc1OC,-9.4,0.6,/,i,/,-0.1,/
Nc1cccc(-n2nncc2-c2ccc(Cl)cc2)c1,4.9,/,0.1,/,0.75,/,1%
O=C(/C=C/c1cccc([N+](=O)[O-])c1)OCC(=O)N1CCOCC1,/,1.2,2.0,i,0.72,2.0,-5%
CCOC(=O)C(C)N1N=C(/C=C/c2ccc(C)cc2)CCC1=O (stereo unspecified),3.7,-0.7,5.4,/,0.68,/,-5%
CC(C)C[C@@H](CN)NC(=O)c1nc[nH]c1C(=O)N[C@@H](C)C(=O)CNC[C@H](C)NC(=O)c1nc[nH]c1C(=O)N[C@@H](C)C(=O)O,/,0.5,/,i,/,3.8,-2%
COc1cccc(Nc2nc3ccc(C(=O)c4ccccc4)cc3n3cnnc23)c1,-0.4,7.7,-5.2,i,0.64,2.5,28%
CCc1cc(-c2[nH]ncc2-c2ccc([N+](=O)[O-])cc2)c(O)cc1OC,0.4,-0.8,3.0,/,0.63,/,-6%
CC[C@H](NC(=O)CC[C@H]1O[C@@H](n2cnc3c(NC(=O)c4ccccc4)ncnc32)[C@H](O)[C@@H]1O)c1ccccc1,/,-0.4,/,i,/,0.2,/
CCC1CCCCN1CCCNC(=O)CSc1nc2nc(C)c(Cc3ccc(C)cc3)c(C)n2n1 (stereo unspecified),0.7,1.6,-1.2,i,0.7,4.0,/
CC(C)N(CCNC(=O)c1ccc(CS(=O)(=O)c2c(Cl)cccc2Cl)o1)Cc1ccccc1,0.2,2.5,-1.6,i,0.68,2.0,-4%

# Screens: PubChem BioAssay, several laboratories

# The list is partial, so the mix of outcomes need not match the whole.
